HIV TAR-Tat: HIV-1 TAR-Tat binding disruption; HIV-1 TAR RNA, Tat peptide displacement FRET; active compounds read high; z-score (no concentration beside the values); 100,000 compounds, 0.6% hits;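 note: score is relative to mean and SD of negative controls; some compounds called inactive have numbers as strong as hits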
CDC25B-CDK2 inh: human CDC25B-CDK2/CyclinA binding inhibition; z-score (no concentration beside the values); HTRF CDC25B-CDK2/CyclinA binding, anti-His/anti-Flag; active compounds read high; 94,000 compounds, 0.72% hits; P30305+P24941;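 note: score is relative to mean and SD of negative controls; strong numbers were not always called active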
The depositor's hits bear a star; x = not tested or not shown.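 Rule for the calls: active = z-score from 3 up in half or more of its runs; inactive = the rest.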

Results follow in this order: HIV TAR-Tat | CDC25B-CDK2 inh
> CCN(CC)CCN1C(=O)c2cc3occc3n2CC1(C)C(=O)NC1CCCCC1 (configuration not stated)
 : 0.46 | x
> CCCN(CCC)Cc1nnc(-c2cccc(Br)c2)o1
 : 1.06 | -0.14
> COC(=O)c1ccc(-c2nnco2)cc1
 : x | -1.75
> O=C(CSCC(=O)Nc1cccc(C(F)(F)F)c1)Nc1ccccc1
 : x | -1.51
> CCn1c(CN2CCCC2)nc2cc(NC(=O)c3ccco3)ccc21
 : -0.73 | 2.66
> CCn1c(=S)ccc2cc(C)ccc21
 : 2.07 | -2.78
> O=C(NC1CCCC1)c1ccc2c(c1)nc1n2CCOC1
 : 1.61 | x
> CC1CCc2cc(F)ccc2N1C(=O)Nc1ccccc1 (configuration not stated)
 : -0.45 | -0.76
> C=CC(C1=CC(=O)C(OC)=CC1=O)c1ccc(OC)cc1 (configuration not stated)
 : -0.02 | x
> CCCOc1cccc(C(=O)Nc2cccc(-c3nc4ccccc4[nH]3)c2)c1
 : x | -0.22
> C=CCNC(=O)C1CCCN1C(=O)c1ccc(NC(=O)C2CC2)cc1 (configuration not stated)
 : -0.06 | x
> C=C(C)Cn1c(COc2cccc(OC)c2)nc2ccccc21
 : 0.26 | 1.21
> O=C(Nc1ccc2c(c1)C(=O)c1ccccc1C2=O)c1ccc2c(c1)OCCO2
 : x | 2.78
> CC(C)CSc1nc(N2CCOCC2)c2c(c1C#N)CC(C)(C)OC2
 : x | -1.08
> Fc1ccc(-c2ccc3ccccc3n2)cc1
 : x | -0.61
> COc1ccc(N2C(=O)c3cccnc3C2Nc2cc(Cl)c(OC)cc2OC)cc1 (configuration not stated)
 : 0.82 | x
> O=C(CSc1nccn1C1CCCCC1)Nc1ccccc1
 : 1.06 | x
> CC1CCCCN1CCCNC(=O)Nc1ccc(Cl)cc1 (configuration not stated)
 : x | -1.55
> O=C(O)COc1cc(OCC(=O)O)c2c3c(c(=O)oc2c1)CCC3
 : x | -1.54
> Cc1[nH]nc2c1C(c1ccc(OCC(N)=O)cc1)C(C#N)=C(N)O2 (configuration not stated)
 : 0.07 | -1.41
> Cc1csc(N2N=C(c3ccccc3)CC2c2ccccc2)n1 (configuration not stated)
 : -0.72 | -0.18
> O=C(C1CC(=O)N(c2ccc(F)cc2)C1)N1CCN(c2ncnc3c2nnn3-c2ccccc2)CC1 (configuration not stated)
 : 1.49 | x
> COc1ccc(OC)c(C2CC(=O)C3=C(C2)NC(=O)CC3c2ccc(Br)cc2)c1 (configuration not stated)
 : -3.95 | 2.13
> CC(C)c1ccc(Nc2c3c(nc4ncnn24)CCC3)cc1
 : -0.48 | x
> CCOC(=O)C1=C(CC)NC2=C(C(=O)CCC2)C1c1ccc(N(C)C)cc1 (configuration not stated)
 : 0.91 | -1.19
> COc1ccc2c(c1)CC(NC(=O)Nc1ccc3c(c1)OCO3)CO2 (configuration not stated)
 : 1.08 | x
> CC12CCC(C(=O)N3NC(=O)[C@@H](c4ccccc4)[C@@H]3c3ccccc3)(OC1=O)C2(C)C (some centres not stated)
 : x | -1.44
> Clc1ccc(CN2CCN(Cc3ccccn3)CC2)cc1
 : -0.58 | -0.17
> CCCC1c2cccn2CCN1C(=O)Nc1ccc(Br)c(C)c1 (configuration not stated)
 : -0.75 | x
> CC(C)CCNC(=O)CC1Oc2ccc(Cl)cc2NC1=O (configuration not stated)
 : 0.05 | -0.51
> CCOC(=O)C1CCN(c2ncnc3c2oc2ccccc23)CC1
 : -0.57 | -0.51
> CCn1cc(C2CC(=O)N(c3ccccc3)C2=O)c2ccccc21 (configuration not stated)
 : -0.53 | 0.39
> O=C(Nc1ccc(Br)c(Cl)c1)c1cccs1
 : -2.66 | -0.9
> CCC12CN3CC(CC)(CN(C1)C(=O)c1ccccc1C3=O)C2=O
 : x | -1.79
> CCc1[nH]c(=O)cc2cc(OC)c(OC)cc12
 : x | -0.98
> O=C(O)c1cccnc1SC1CC(=O)N(c2ccccc2Cl)C1=O (configuration not stated)
 : 1.86 | -0.86
> O=C(CSc1nc2ccccc2nc1N1CCOCC1)Nc1ccccc1F
 : -0.87 | -1.96
> Cn1cccc1-c1cc2n(n1)CCC(=O)N2CCCC(=O)N1CCCC1
 : -0.47 | x
> CCC(CC)C(=O)Nc1nnc(S(=O)(=O)N(C)Cc2ccco2)s1
 : 1.48 | -1.29
> CN(C)c1nc(Oc2ccc(=O)n(C)n2)nc(N2CCOCC2)n1
 : -0.02 | -1.09
> O=C1Nc2ccc(S(=O)(=O)N3CCCC3C(=O)O)c3cccc1c23 (configuration not stated)
 : 1.42 | 0.55
> COc1ccccc1-n1c(=O)[nH]c2c(C(N)=O)nc(-c3ccccn3)nc21
 : 1.04 | x
> O=C(NCCSCc1ccco1)c1cncc(Br)c1
 : x | -2.2
> CCOC(=O)c1c(C)[nH]c(C)c1S(=O)(=O)NCC(=O)N1CCCC1
 : 0.6 | x
> Cc1nc2c(s1)c(C)nn2-c1ccccc1
 : 0.23 | -0.63
> Cc1cc(C)n(CCc2nc3c4ccccc4nc(N4CCN(C5CCCCC5)CC4)n3n2)n1
 : 0.97 | -1.11
> O=C(c1ccccc1)N1CCN(c2ccc3nnc(-c4ccc(F)cc4)n3n2)CC1
 : 0.22 | -1.56
> COc1ccc(/C=C(\C#N)S(=O)(=O)c2ccccc2Cl)s1
 : x | -1.46
> COc1ccc(N2CCN(C(=O)Nc3snnc3C(=O)N3CCN(C)CC3)CC2)cc1
 : 0.21 | x
> O=C(NCC1CCCO1)c1cc(-c2cccnc2)nc2ccc(Br)cc12 (configuration not stated)
 : -1.91 | x
> N#Cc1c(N)c(C(=O)c2ccccc2)n2c1CCC2
 : x | -2.36
> Cn1c2c(c(=O)n(C)c1=O)C(c1ccccc1Cl)C1C(=O)c3ccccc3C1=N2 (configuration not stated)
 : -0.1 | -3.16
> CN1C(=O)C(C)(C)c2cc(S(=O)(=O)N3CCN(Cc4ccc5c(c4)OCO5)CC3)ccc21
 : -0.15 | x
> O=C(c1ccc(F)cc1)C1CCN(CC(O)C(F)(F)F)CC1 (configuration not stated)
 : x | 0.45
> CC(C)NC(=O)C(C)n1ccc2cc(S(=O)(=O)N3CCCC3)ccc21 (configuration not stated)
 : 0.34 | x
> CCSc1nnc(NC(=O)CSc2nccn2Cc2ccc3c(c2)OCO3)s1
 : -5.34 | x
> CCN(CC)CCNC(=O)Cn1c2ccccc2c2nc(=O)cc(C)n21
 : 1.48 | -0.14
> Cc1cc(NC(=O)c2ccc(Cl)cc2)n(-c2ccccc2)n1
 : x | -2.33
> CCCN(CCC)C(=O)c1cc2ccc3cccnc3c2[nH]1
 : 0.54 | x
> CCCCCCCCCCC[C@@H](C[C@@H]1OC(=O)[C@H]1CCCCCC)OC(=O)[C@H](CC(C)C)NC=O
 : 4.25 | x

More records:
Results follow in this order: HIV TAR-Tat | CDC25B-CDK2 inh
> CCc1ccc(S(=O)(=O)Nc2cc(-c3cn4ccccc4n3)ccc2C)cc1
 : 2.37 | -0.47
> Cc1ccccc1-n1c(N)cc(=O)[nH]c1=O
 : x | -0.5
> CSc1cccc(NC(=O)CN2C(=O)CSc3ccc(S(=O)(=O)N4CCCC4)cc32)c1
 : 0.79 | x
> COc1ccc(-c2noc(-c3nnn(-c4ccc(Br)cc4)c3N)n2)cc1
 : 1.39 | x
> Clc1ccc(SCc2csc(-c3ccsc3)n2)cc1
 : x | -1.49
> O=C(NC(N1CCCC1=O)(C(F)(F)F)C(F)(F)F)c1cccnc1
 : x | -1.85
> O=S(=O)(Nc1cccc(-c2cn3ccccc3n2)c1)c1ccc(F)cc1
 : 0.39 | 1.02
> COc1ccc2c(c1)c(N1CCCC1=O)c(C(=O)Nc1ccc(F)cc1F)n2C
 : 0.12 | x
> Cn1cnc(S(=O)(=O)Nc2ccc(F)c(Cl)c2)c1
 : 2.38 | x
> O=C(O)C(O)c1ccccc1Cl (configuration not stated)
 : x | -0.09
> Cc1cc2nc(COC(=O)COc3ccc(C)c(C)c3)cc(=O)n2o1
 : 0.57 | x
> Cc1ccc(-c2[nH]nc3nc(-c4cccc(F)c4)cc(C(=O)O)c23)cc1
 : 1.85 | x
> COc1ccc(-c2n[nH]c3c2cnc2ccccc23)cc1
 : x | 2.41
> Cc1c(C(=O)NC2CCCCC2)oc2ccc(S(=O)(=O)N3CCCCCC3)cc12
 : x | -0.58
> Cc1ccc(C(=O)N2N=C(CC(C)C)CC2(O)C(F)(F)F)cc1 (configuration not stated)
 : x | -0.46
> CCCCSc1nnc2sc3ccccc3n12
 : 2.38 | -0.49
> FC(F)(F)COc1ccc(OCC(F)(F)F)cc1
 : x | -4.01
> CC(C)(C)C1CCC2(CC1)NNC(=S)NN2
 : x | -1.99
> CC(=O)O[C@H]1CC2(C)[C@@H](C[C@@H](O)[C@H]3[C@@]4(C)CC[C@@H](O)[C@@H](C)[C@@H]4CC[C@@]32C)C1=C(CCC=C(C)C)C(=O)O (some centres not stated)
 : x | -1.14
> Cc1c(C(=O)O)oc2ccc3c(c12)C(=O)CC1(CCCC1)O3
 : 3.07 | -0.65
> CCn1c(C(=O)NC2CCCCC2C)cc2sccc21 (configuration not stated)
 : 0.75 | 0.53
> CCC(C)NC(=O)Cn1cc2c(n1)CCC(C)C2 (configuration not stated)
 : x | -1.84
> O=c1[nH]c(=O)n(Cc2cccnc2)c2c1CN(Cc1ccccc1)CN2
 : -0.83 | 0.23
> COc1cccc(-c2nc(C)c(C(C)=O)c(SCc3ccccc3)n2)c1
 : x | -1.28
> Oc1ccccc1/C=C/c1nc(-c2ccccc2O)n(-c2ccccc2)n1
 : 2.1 | -0.8
> CCCS(=O)(=O)N1CCCc2ccc(NS(=O)(=O)c3ccc(C)cc3)cc21
 : 1.16 | x
> CN1CCN(CC(=O)N2CCCc3ccccc32)CC1
 : 0.55 | -0.56
> COC(=O)C1=NN(c2ccccc2Cl)C2C(=O)N(c3ccccc3OC)C(=O)C12 (configuration not stated)
 : 3.18 | -0.15
> CC(C)Cn1cc(NC(=O)NCCN2CCCc3ccccc32)c2ccccc2c1=O
 : 1.18 | x
> Cc1ccc(NC(=O)c2ccsc2)cc1NS(C)(=O)=O
 : x | -1.72

Some of these compounds in order of molar mass, falling.
Results follow in this order: HIV TAR-Tat | CDC25B-CDK2 inh
> CC(C)Cn1cc(NC(=O)NCCN2CCCc3ccccc32)c2ccccc2c1=O
 : 1.18 | x
> Oc1ccccc1/C=C/c1nc(-c2ccccc2O)n(-c2ccccc2)n1
 : 2.1 | -0.8
> CCC(C)NC(=O)Cn1cc2c(n1)CCC(C)C2 (configuration not stated)
 : x | -1.84

(cont.)
Results follow in this order: HIV TAR-Tat | CDC25B-CDK2 inh
> Cn1c(SCC(=O)Nc2cccc(F)c2)nc2c(c1=O)SCC2
 : 0.81 | -2.5
> CN(c1nnc(NC(=O)Nc2ccc(Cl)cc2)s1)C1CCCCC1
 : 0.73 | -1.61
> Cc1ccc(-c2nc(-c3ccncc3)no2)cc1C
 : 0.78 | -1.16
> CC(C)c1ccc(-c2nc3c(c(=O)[nH]2)Cc2ccccc2O3)cc1
 : 0.78 | -1.24
> O=C(NCc1ccco1)c1nnsc1NC(=O)N1CCOCC1
 : 0.81 | x
> COc1ccc(NC(=O)C2=Cc3sc4c(c3CS2)CCC(C)C4)cc1OC (configuration not stated)
 : 0.29 | x
> CSc1nc2c(sc(=S)n2-c2ccccc2)c(=O)[nH]1
 : 1.58 | x
> O=C(Cn1nc(Cc2ccncc2)c2ccccc2c1=O)Nc1nccs1
 : 0.92 | -1.67
> O=C1C2C(C(=O)C3C1[C@H]1C=C[C@@H]3C1)[C@H]1C=C[C@@H]2C1 (some centres not stated)
 : x | -1.55
> O=C(c1ccc2c(c1)OCCO2)N(Cc1cccnc1)c1nc2ccc(F)cc2s1
 : 1.48 | x
> CCc1ccc(OCc2cc(=O)n3nc(CC)sc3n2)cc1
 : -0.57 | -2.14
> O=C(Cn1cc(S(=O)(=O)c2ccc(F)cc2)c(=O)c2cc(F)ccc21)Nc1ccc(F)cc1
 : 0.55 | 1.86
> O=c1c2c(nc3nc(-c4ccccc4)[nH]n13)CCC2
 : 0.06 | -1.37
> CCn1c(=O)c(N2CCC(C(=O)O)CC2)nc2ccccc21
 : -0.45 | 0.18
> O=C(CSc1nc2c(c(=O)n1-c1ccc(Br)cc1)SCC2)N1CCCCC1
 : x | -0.2
> CCc1nn(CCCC(=O)NCc2cccnc2)c(=O)c2cc3oc(C)cc3n12
 : -1.8 | -2.54
> CCC(=O)Nc1nnc(SCc2cc(=O)n3c(C)csc3n2)s1
 : 0.97 | x
> CCn1c(=O)c(=O)n(CC(=O)O)c2cccnc21
 : 0.37 | 1.56
> CN(C)CCN(C(=O)C1CCCCC1)c1nc2c(F)cccc2s1
 : 2.15 | x
> COCCn1c(=O)c2sc3ccccc3c2n(CC(N)=O)c1=O
 : x | -1.45
> COc1ccccc1OCCCCCCc1c(C)n[nH]c1C
 : 2 | -1.39
> CCCOc1cccc(C2c3c(oc4ccccc4c3=O)C(=O)N2c2ccccn2)c1 (configuration not stated)
 : -0.05 | -1.65
> CCc1nnc(NC(=O)c2nn(-c3ccc(OC)cc3)ccc2=O)s1
 : 0.88 | 1.26
> CC1NC(=O)C(C#N)=C(SCc2ccccc2)S1 (configuration not stated)
 : 0.96 | -0.94
> O=c1[nH]c2ccc(NCc3ccc(-c4ccccc4F)o3)cc2[nH]1
 : -1.22 | 4.65*
> Cc1ncc(-c2ccc(S(=O)(=O)Nc3cccc(Br)c3)cc2)o1
 : 1.68 | x
> N#Cc1ccc(-c2csc(-c3cnccc3C(F)(F)F)n2)cc1
 : x | -1.84
> O=C1NCCCN1Cc1ccc(F)cc1Cl
 : x | -1.43
> COc1ccc(OC(=O)CSc2nc(-c3ccc(OC)cc3)nc3cc(=O)[nH]n23)cc1
 : 0.71 | x
> CN1CCN(c2cc(Nc3ccc4c(c3)OCCO4)c3c4c(onc24)-c2ccccc2C3=O)CC1
 : -6.99 | 10.5*
> O=C(Nc1ccc(F)cc1)c1ncoc1-c1ccco1
 : 0.52 | x
> Cc1nnc(N2C(=O)C(O)=C(C(=O)c3ccco3)C2c2ccc(Br)cc2)s1 (configuration not stated)
 : x | -3.25
> Cc1n[nH]c(C)c1CCc1nc2c3ccccc3nc(SCC(=O)Nc3ccccc3F)n2n1
 : 2.72 | 0.44

Screening data deposited in PubChem BioAssay by Center for Chemical Genomics, University of Michigan.
